# Screens as filed in PubChem.
# FGF22 binding – binders of recombinant human FGF22 by thermal shift | SYPRO orange fluorescence; percent of sucrose octasulfate shift, DMSO zero | calls only at 9.99 µM | hit rate 1.5% among 340,000 | AID 651658;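 active = melting point raised past a set limit in the mean and every replicate; inconclusive = no clear call; three in four hits are not shown here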
# Target sequence (Q9HCT0 whole entry, looked up): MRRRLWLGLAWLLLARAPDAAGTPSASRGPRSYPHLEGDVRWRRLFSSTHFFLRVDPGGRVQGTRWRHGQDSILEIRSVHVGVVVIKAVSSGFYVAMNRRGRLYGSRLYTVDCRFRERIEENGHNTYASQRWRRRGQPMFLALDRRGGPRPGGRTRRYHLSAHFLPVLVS
# HNF4A DNA FP – change in binding of human HNF4 alpha to DNA | hit rate 0.3% among 360,000 | AID 1224865 | activity change, % at 10 µM | HNF4a-FITC DNA binding, fluorescence polarization, 1 h; in the data active = activity change above about 30%, passing the limit was not always enough;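 note: controls were the assay level and a saturating level of protein; the project sought stronger binding though the title names inhibitors; some compounds called inactive have numbers as strong as hits; positive values seem to mean higher polarization but the record does not say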
# Ecoli rRNA inh – selective bacterial rRNA inhibition in E. coli; E. coli WT GFP vs humanized-ribosome RFP mutants, fluorescence, 24 h; hits give low values; DMSO median 0, no signal -100; GFP signal change (wild-type ribosome), % (test concentration not listed); hit rate 1.6% among 350,000; AID 720706;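 active = significant combined selectivity score with lowered wild-type GFP, culture density cut under 30%, mutant RFP and density less affected; inactive = any of these conditions unmet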; note: one replicate is shown; some compounds called inactive have numbers as strong as hits
# MLL AF4-AF9 inh – blocks AF4 peptide binding to human AF9; P42568; AlphaScreen, biotin-AF4 peptide binding to FLAG-AF9; inhibition, % at 10 µM; hit rate 0.47% among 350,000; AID 651704;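 active = every replicate reaching a set inhibition limit, whatever the replicate mean, cut at about 25% in these data; inconclusive = mean inhibition reaches that limit but some replicates miss it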;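 note: 0% = plate neutral control median and 100% = total signal loss; the record names both 10 and 1 µM as test concentration; the first replicate is given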
# Target sequence (P42568 whole entry, looked up): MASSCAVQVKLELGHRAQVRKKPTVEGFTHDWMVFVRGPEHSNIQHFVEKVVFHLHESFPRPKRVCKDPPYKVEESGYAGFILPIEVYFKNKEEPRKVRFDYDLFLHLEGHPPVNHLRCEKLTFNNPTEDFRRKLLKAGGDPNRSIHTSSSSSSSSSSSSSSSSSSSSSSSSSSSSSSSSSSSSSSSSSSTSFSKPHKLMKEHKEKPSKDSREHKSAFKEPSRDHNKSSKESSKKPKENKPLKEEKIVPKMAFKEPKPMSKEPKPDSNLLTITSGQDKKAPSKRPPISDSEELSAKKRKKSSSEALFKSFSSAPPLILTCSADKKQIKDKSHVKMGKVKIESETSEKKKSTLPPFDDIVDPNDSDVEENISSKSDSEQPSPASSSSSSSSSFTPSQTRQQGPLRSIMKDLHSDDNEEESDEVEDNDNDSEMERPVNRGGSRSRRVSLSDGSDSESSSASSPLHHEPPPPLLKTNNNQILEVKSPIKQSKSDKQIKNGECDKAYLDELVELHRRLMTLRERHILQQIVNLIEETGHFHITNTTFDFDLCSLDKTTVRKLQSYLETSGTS
# Vif A3G – inhibitors of Vif binding to APOBEC3G peptide, primary screen, biochemical, TR-FRET, GST-Vif 1-94, biotin-A3G peptide, dose response retest (AID 1117319). hit rate 0.57% among 260,000. TR-FRET GST-Vif / biotin-A3G peptide binding; higher % means a stronger effect; test concentration not given here; strong numbers were not always called active. inhibition, %; hits with a dose series show IC50 in µM;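 active = above the screen mean plus three standard deviations and confirmed in dose response; inconclusive = results disagree or hit not tested in dose response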;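 note: Vif residues 1-94 fused to GST binding biotinylated APOBEC3G peptide 110-148; 0% = full assay without inhibitor and 100% = GST in place of GST-Vif; retest series ran down from 100 µM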
# ALR H2O2 inh – human ALR oxidase inhibition via reduced H2O2 | P55789 | purified ALR, DTT oxidation, H2O2 HRP-luminol luminescence | inhibition, % (concentration not given with the values) | hit rate 3.8% among 290,000;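 active = mean and each replicate at 75% or more; inconclusive = only one of the two met; inactive = neither met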;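 note: stock transfer was 7.5 nL into about 7.5 µL; 0% = neutral wells and 100% = wells with inactivated enzyme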
# Target sequence (P55789 whole entry, looked up): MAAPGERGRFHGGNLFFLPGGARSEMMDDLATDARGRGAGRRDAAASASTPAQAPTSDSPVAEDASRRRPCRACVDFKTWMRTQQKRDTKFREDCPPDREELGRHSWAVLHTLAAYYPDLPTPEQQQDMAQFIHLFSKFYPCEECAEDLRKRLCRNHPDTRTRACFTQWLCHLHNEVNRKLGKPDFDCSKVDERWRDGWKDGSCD
# Ecoli growth – inhibitors of Escherichia coli growth | OD600, 23 h; hits give low values | OD600 absorbance (no concentration beside the values) | hit rate 0.21% among 330,000 | AID 1053175;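 active = OD600 absorbance below the run mean of sample wells minus 3.6 SD, in any replicate, cut at about 0.56 in these data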;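 note: stock transfer was 300 nL into about 60 µL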
# Ecoli rRNA inh OD600 – recorded beside Ecoli rRNA inh, whose call it bears; OD600 change, %; measured here: OD600 growth;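 optical density of the mix in the first replicate; 0 = DMSO median and -100 = no signal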
# Ecoli rRNA inh RFP – second read-out of Ecoli rRNA inh, no call of its own (marks repeat the call); RFP signal change, %; measured here: RFP humanized mutant strains;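 first replicate; 0 = DMSO median and -100 = no signal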
# An asterisk follows results filed as active; i = inactive; ? = inconclusive; . = not tested or not shown; & = joins results of further samples. These rows are one share of the data; rates above refer to the full screens.
SMILES,FGF22 binding,HNF4A DNA FP,Ecoli rRNA inh,Ecoli rRNA inh OD600,Ecoli rRNA inh RFP,MLL AF4-AF9 inh,Vif A3G,ALR H2O2 inh,Ecoli growth
O=C(NCC1CCN(C(=O)C(=O)c2cccs2)CC1)c1ccc2ccccc2c1,i,.,-11,-22,12,-3.9,.,.,.
CN(C)CCCNC(=O)C[C@@H]1CC[C@@H]2[C@H](COc3ccc(NS(C)(=O)=O)cc3C(=O)N2C)O1,i,.,2,9,-2.1,-2.0,.,.,.
COc1ccc2nc(Cl)c(C=O)c(N3CCOCC3)c2c1,i,-0.1,-1,7,-0.6,-3.2,-7%,.,.
COc1ccc(CCNC(=O)C2CCC(=O)N2CCc2ccccc2)cc1OC (centres undefined),i,-3.0,6,3,-6.8,2.3,1%,.,0.67
CCOC(=O)CCc1c(C)c2ccc(OC3CCCCC3=O)cc2oc1=O (centres undefined),i,4.9,-21*,-16*,-1.8*,1.8,2%,4,0.69
Cc1c(/C=C/C(=O)c2ccc(C(C)C)cc2)cnn1C,i,2.8,-17,-17,-8.6,1.2,.,1,.
COc1ccc(NC(=O)CSc2nnc(N)n2CC(=O)Nc2ccc(OC)cc2)cc1,i,-2.8,16,5,-0.5,-0.8,.,.,0.69
CCOc1cc(/C=N/N=C(N)N)ccc1OCc1ccc(Cl)cc1,i,5.0,-33,-50,-3.6,27*,-4%,-3,.
C[C@@H]1CCCCO[C@H](CN(C)C(=O)Nc2ccc(F)cc2)[C@@H](C)CN([C@@H](C)CO)C(=O)c2cc(NC(=O)CCC(F)(F)F)ccc2O1,i,.,-2,-3,1.2,-2.3,.,.,.
Cc1ccc(C)c(NC(=O)C2CC(O)CN2C(=O)OCc2ccccc2)c1 (centres undefined),.,-0.7,.,.,.,.,3%,-9,0.72
COc1ccccc1NC(=O)N[C@@H]1CC[C@@H](CCNS(=O)(=O)c2ccc(Cl)cc2)O[C@@H]1CO,i,.,-1,-8,1.4,1.0,.,.,.
O=C([C@H]1[C@H](CO)[C@H]2Cn3c(cccc3=O)[C@H]2N1Cc1ccccc1)N1CCCCC1,i,.,1,5,-1.9,-1.4,.,.,.
C[C@H]1CN([C@@H](C)CO)C(=O)Cc2cc(NS(=O)(=O)c3cn(C)cn3)ccc2O[C@H]1CN(C)S(=O)(=O)c1cccs1,i,.,0,2,0.0,-1.5,.,.,.
COc1ccc(S(=O)(=O)N(C)C[C@H]2OCCCC[C@@H](C)Oc3ccc(NC(=O)Nc4ccc(F)cc4)cc3C(=O)N([C@H](C)CO)C[C@H]2C)cc1,i,.,5,10,3.5,1.1,.,.,.
Cc1ccccc1S(=O)(=O)c1c(C)cc(C)n(C)c1=O,i,2.0,17,17,0.8,-0.9,6%,-3,0.69
COc1ccc(C(=O)CCc2ccccc2O)c(OC)c1,i,-2.1,-16,-35,1.4,-1.0,-6%,.,0.69
C[C@H]1CN([C@@H](C)CO)C(=O)c2c(c3ccccc3n2C)-c2ccccc2CO[C@@H]1CN(C)S(=O)(=O)c1ccc(C#N)cc1,i,.,0,3,-3.0,2.2,.,.,.
Cc1cc(C(=O)COC(=O)c2cccs2)c(C)n1-c1c(C)n(C)n(-c2ccccc2)c1=O,.,-6.1,.,.,.,.,-4%,.,0.67
CS(=O)(=O)c1ccc(Cl)c(NC(=O)CCN2C(=O)C3CC=CCC3C2=O)c1 (centres undefined),i,2.6,12,4,2.4,-0.9,-5%,9,0.69
COC(=O)C(Cc1c[nH]c2ccccc12)NC(=O)c1cccs1 (centres undefined),i,2.9,-10,-15,-0.7,0.6,-6%,35,0.65

# Given with two lines to a compound: part of the list above.
# Order of results – FGF22 binding, HNF4A DNA FP, Ecoli rRNA inh, Ecoli rRNA inh OD600, Ecoli rRNA inh RFP, MLL AF4-AF9 inh, Vif A3G, ALR H2O2 inh, Ecoli growth
> Cc1cc(C(=O)COC(=O)c2cccs2)c(C)n1-c1c(C)n(C)n(-c2ccccc2)c1=O
    ., -6.1, ., ., ., ., -4%, ., 0.67
> COc1ccc(C(=O)CCc2ccccc2O)c(OC)c1
    i, -2.1, -16, -35, 1.4, -1.0, -6%, ., 0.69

# The listing picks up; the 4 compounds before the break are reprinted first.
SMILES,FGF22 binding,HNF4A DNA FP,Ecoli rRNA inh,Ecoli rRNA inh OD600,Ecoli rRNA inh RFP,MLL AF4-AF9 inh,Vif A3G,ALR H2O2 inh,Ecoli growth
C[C@H]1CN([C@@H](C)CO)C(=O)c2c(c3ccccc3n2C)-c2ccccc2CO[C@@H]1CN(C)S(=O)(=O)c1ccc(C#N)cc1,i,.,0,3,-3.0,2.2,.,.,.
Cc1cc(C(=O)COC(=O)c2cccs2)c(C)n1-c1c(C)n(C)n(-c2ccccc2)c1=O,.,-6.1,.,.,.,.,-4%,.,0.67
CS(=O)(=O)c1ccc(Cl)c(NC(=O)CCN2C(=O)C3CC=CCC3C2=O)c1 (centres undefined),i,2.6,12,4,2.4,-0.9,-5%,9,0.69
COC(=O)C(Cc1c[nH]c2ccccc12)NC(=O)c1cccs1 (centres undefined),i,2.9,-10,-15,-0.7,0.6,-6%,35,0.65
C[C@@H]1CN([C@@H](C)CO)C(=O)CCCn2cc(nn2)CO[C@@H]1CN(C)Cc1ccc2c(c1)OCCN2C,i,.,-1,1,-2.2,1.3,.,.,.
C[C@@H]1CN([C@@H](C)CO)C(=O)c2cc(C#CCN(C)C)cnc2O[C@@H]1CN(C)Cc1ccc2c(c1)OCO2,i,.,1,5,0.3,0.5,.,.,.
CN1C(=O)c2cc(NC(=O)Cc3cccs3)ccc2OC[C@H]2O[C@@H](CC(=O)NCC3CCCCC3)CC[C@@H]21,i,.,-2,-25,-3.4,1.0,.,.,.
SC(COCc1ccccc1)CN1CCN(Cc2ccc3c(c2)OCO3)CC1 (centres undefined),.,-5.4,.,.,.,.,6%,-4,.
CCN(CC)S(=O)(=O)c1ccc(C(=O)Nc2c3c(nn2C(C)(C)C)CS(=O)(=O)C3)cc1,.,1.8,.,.,.,.,2%&-8%,-1,0.64
O=C(CNCCc1ccccc1)N1CCc2ccccc2C1,i,4.0,14,-4,-2.1,-0.9,4%,8,0.66
Cc1ccc(C)c(N2CCN(CCCNC(=O)CCn3c(=O)c4cccn4c4cccnc43)CC2)c1,i,-1.7,-7,-16,2.0,5.4,?,-10,0.7
CC(NC(=O)Cn1nc(-c2ccccc2)c2ccccc2c1=O)c1ccccc1 (centres undefined),.,-0.8,.,.,.,.,?,3,0.71
O=C1Nc2ccc(Cl)cc2C(=O)C1(F)c1ccccc1 (centres undefined),i,3.7,-13,-6,3.5,-5.0,-38%,-3,0.68
COc1ccc(-c2ccc3c(c2)[C@H]2[C@H](CCN2C(=O)c2ccc4c(c2)OCO4)[C@H](CO)N3C)cc1,i,.,3,4,0.4,2.6,.,.,.
CCC(Oc1ccccc1)C(=O)Nc1cc(C(F)(F)F)ccc1N1CCOCC1 (centres undefined),i,-0.6,2,-6,-2.4,0.5,10%,8,0.63
CCC(=O)N1[C@@H]2c3ccc(C4=CCCCC4)c(=O)n3C[C@H]1[C@H](CO)[C@H]2C(=O)N[C@@H](C)c1ccccc1,i,.,-4,6,1.6,-0.2,.,.,.
CCOC(=O)c1c(C)c(C(=O)NC(C)COC)c(C)n1CC (centres undefined),i,0.7,9,-4,-4.3,-7.6,-5%,0,0.73
COc1ccc(S(=O)(=O)N2CCOCC2)cc1C(=O)NCc1ccccc1CN1CCCC1,i,-0.4,3,2,-0.9,0.7,-6%,-4,0.7
C[C@@H]1CN([C@H](C)CO)S(=O)(=O)c2ccc(C#CC3(O)CCCC3)cc2O[C@H]1CN(C)C(=O)Nc1ccc(F)cc1,i,.,-1,-9,1.6,2.0,.,.,.
CC(=O)N1c2ccccc2N(Cc2ccc(C)cc2C)C(=O)C1(C)C,i,2.1,-37,-61,-2.3,-1.5,13%,.,0.77
CN(C[C@H](Cc1ccccc1)N(C[C@H](c1ccccc1)N(CCc1ccccc1)N=O)N=O)N=O,i,2.5,1,-2,-2.4,1.2,29%,-8,.
COc1ccc(C(=O)Nc2cnccn2)cc1[N+](=O)[O-],i,1.2,19,17,1.1,-2.2,-3%,-7,0.68
CN(C)c1ccc(CNc2ccccn2)cc1,i,-0.1,13,17,-1.8,10,.,98*,0.65
C[C@H]1CCCCO[C@@H](CN(C)S(=O)(=O)c2ccc(Cl)cc2)[C@@H](C)CN([C@@H](C)CO)C(=O)c2cc(NC(=O)CCC(F)(F)F)ccc2O1,i,.,-2,1,2.0,-0.1,.,.,.
COc1ccc(OC)c(NC(=O)Nc2nnc([C@H]3C[C@H](O)[C@@H](CO)O3)s2)c1,i,0.3,-1,-1,0.2,2.9,.,.,.
C[C@@H]1CN([C@@H](C)CO)C(=O)c2cc(C#CCN(C)C)cnc2O[C@@H]1CN(C)C(=O)CCN1CCCCC1,i,.,2,1,-2.0,-1.4,.,.,.
COc1ccc(CNC(=O)C2CC(C)=C(C)CC2C(=O)O)cc1OC (centres undefined),i,2.9,2,4,-1.6,-1.1,.,-7,.
O=C(CCn1cnc2ccccc2c1=O)Nc1nc2c(s1)CCCC2,.,-5.3,.,.,.,.,-3%,17,0.74
CCN(CCC#N)c1ccc(/C=N/Nc2nc(C)cc(=O)[nH]2)c(C)c1,i,1.4,6,-5,-6.3,-0.5,7%,99*,.
COc1ccc(CNC(=O)CN(C(=O)c2csnn2)c2cnc3ccccc3c2)cc1,i,-0.1,0,-2,0.4,-2.5,22%,-3,0.69
COc1ccc(NC(=O)CCCCCN2C(=O)c3cccc([N+](=O)[O-])c3C2=O)c(OC)c1,i,-1.1,-5,-9,-3.5,1.5,-4%,-6,0.67
CCC(=O)Nc1ccc2c(c1)OC[C@@H](C)N(Cc1ccncc1)C[C@@H](C)[C@H](OC)CN(C)C2=O,i,.,1,5,0.2,-3.5,.,.,.
COc1ccccc1-c1ccc2n(c1=O)C[C@@H]1[C@@H](CO)[C@H](C(=O)N(C)C)N(CC3CCOCC3)[C@H]21,i,.,2,11,-2.2,-12,.,.,.
Cc1cccc(OCc2nnc(SCC(=O)Nc3cc(C)on3)n2C)c1,.,3.6,.,.,.,.,4%,-3,0.71
Cc1ccoc1C(=O)N1CCN(C(=O)c2occc2C)CC1,i,1.8,7,7,-4.5,0.5,.,-2,0.71
Cc1nn(C2CCS(=O)(=O)C2)c2nc(C3CC3)cc(C(=O)Nc3ccc(C(N)=O)cc3)c12 (centres undefined),i,-0.3,-1,5,2.9,-1.0,2%,.,0.6
Cc1nc2ccc(NC(=O)NCCO)cc2s1,.,-1.9,.,.,.,.,-10%,-5,0.68
Cc1ccccc1COC(=O)CN1C(=O)NC2(CCCC2)C1=O,i,-1.7,2,1,0.2,-1.3,-11%,-2,0.71
Cc1cccc(NC(=O)c2cc(S(=O)(=O)N3CCCCC3)c[nH]2)c1C,i,-2.3,-4,-12,-0.2,-2.5,.,-1,0.68
CS(=O)(=O)c1ccc2nc(NC(=O)Nc3ccccc3F)sc2c1,i,1.8,-5,7,1.2,-2.0,.,-7,0.67
CN1CCN(C(=O)CCN2C(=O)/C(=C/c3cccc(Br)c3)SC2=S)CC1,i,2.4,0,12,8.2,3.9,.,-18,0.67
CCCn1nc(C(=O)OCc2nc(N)nc(Nc3ccccc3C)n2)c2ccccc2c1=O,i,0.5,-15,-13,2.5,0.6,?,.,0.63
c1ccc(-c2ccc(C3CCCN3)cc2)cc1 (centres undefined),i,0.4,2,-1,-3.1,0.7,-3%,-1,0.59
